PKD1 inh: inhibitors of human PKD1 kinase | Q15139 | inhibition, %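 (about 10 µM by stock and volumes)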 | PKD1 kinase fluorescence polarization assay | AID 797 | 200,000 tested, 0.056% active;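 active means inhibition of 50% or more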;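 further: controls were vehicle for no effect and a reference inhibitor for full effect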
Target sequence (Q15139 whole entry, looked up): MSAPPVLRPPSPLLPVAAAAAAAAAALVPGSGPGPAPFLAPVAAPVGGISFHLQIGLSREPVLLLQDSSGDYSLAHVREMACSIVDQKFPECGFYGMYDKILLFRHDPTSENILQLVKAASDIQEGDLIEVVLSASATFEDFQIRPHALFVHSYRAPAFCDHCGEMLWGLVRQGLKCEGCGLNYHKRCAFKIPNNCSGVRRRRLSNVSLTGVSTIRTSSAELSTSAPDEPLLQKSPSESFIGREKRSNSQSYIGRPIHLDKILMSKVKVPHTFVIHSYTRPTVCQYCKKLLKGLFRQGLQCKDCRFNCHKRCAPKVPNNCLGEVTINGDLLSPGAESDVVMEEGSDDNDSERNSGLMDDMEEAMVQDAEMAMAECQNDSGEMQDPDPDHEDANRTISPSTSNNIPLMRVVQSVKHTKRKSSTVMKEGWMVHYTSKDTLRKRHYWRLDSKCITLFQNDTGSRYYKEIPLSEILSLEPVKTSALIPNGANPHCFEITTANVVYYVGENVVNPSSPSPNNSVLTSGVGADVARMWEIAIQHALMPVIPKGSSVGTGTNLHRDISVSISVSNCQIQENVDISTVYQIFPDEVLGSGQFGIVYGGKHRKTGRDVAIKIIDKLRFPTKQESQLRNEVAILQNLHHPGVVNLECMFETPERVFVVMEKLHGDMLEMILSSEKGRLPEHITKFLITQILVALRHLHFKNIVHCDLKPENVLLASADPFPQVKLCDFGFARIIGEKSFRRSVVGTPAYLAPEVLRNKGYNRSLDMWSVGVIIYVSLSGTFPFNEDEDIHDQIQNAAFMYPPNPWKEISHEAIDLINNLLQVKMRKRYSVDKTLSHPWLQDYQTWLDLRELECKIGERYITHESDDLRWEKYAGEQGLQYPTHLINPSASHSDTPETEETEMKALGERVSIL
RGS16-Gao: RGS16-Galphao interaction regulator (human). O15492+P09471. bead-based flow cytometry RGS16-Galphao binding, fluorescence; actives lie on both sides. binding response (% of control), % at 10 µM. 220,000 tested, 0.38% active. AID 1441;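 active means below 25% or above 175%, edge rows of some plates excepted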;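 further: Galphao activated by GDP with aluminum fluoride before binding; 100% = wells without compound and 0% = beads without RGS; some results beyond the cut were filed as inactive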
INS promoter inh: TRM-6 insulin promoter activity inhibition | 130,000 tested, 0.9% active | inhibition, % at 2 µM | AID 1273 | TRM-6 cells (human fetal islet line), insulin promoter-eGFP reporter, imaging; reporter expression induced with tamoxifen;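 active means inhibition above the mean plus 3 SD, with well images judged a real hit on visual review, cut at about 60% in these data, passing the limit was not always enough; inconclusive means inhibition over the cutoff but images rejected on review; inactive means inhibition not above the cutoff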
HSV replic up: increases HSV replication in cells | HSV replication augmentation in cells, fold increase | maximum fold increase | 220,000 tested, 0.005% active | AID 1956;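 active means peak rise of 1.5-fold or more in the series; inconclusive means self-fluorescent or not available for retest; tested in PC3 cells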;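 further: first round at 10 µM; read as green reporter fluorescence; hits show the peak of a series up to 25 µM; 1 = signal of infected wells without compound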
GALR2 agonist: agonists of human galanin receptor 2 (GALR2); O43603; GALR2-expressing cells, agonist activation read-out; activation, %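 (tested at 5 µM)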; 140,000 tested, 0.48% active;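 active means above mean plus 3 SD of all compounds, about 5% in these data, not always enough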;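 further: 0% = vehicle buffer wells and 100% = reference agonist at full effect; tested in CHO reporter cells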
INS promoter inh cell count: second read-out of INS promoter inh, no call of its own (marks repeat the call); normalized cell count, %; measured here: cell count, toxicity; reference of the scale not given here;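 cells exposed to compound for 48 h; stained nuclei by imaging scaled within each plate; lower means fewer cells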
HSV replic up primary fold: second read-out of HSV replic up, no call of its own (marks repeat the call); fold increase; compound at 10 µM; measured here: primary screen fold increase 10 uM; tested in PC3 cells;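 GFP signal in the first replicate; 1 = infected wells without compound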
* = called active by the depositor; i = inactive; ? = inconclusive; nt = no result given; [ ] = dose if it differs, or a comment. An unsorted share of the library; 1.3% or so of the library scored in one or more.

smiles,HSV replic up primary fold,HSV replic up,INS promoter inh cell count,INS promoter inh,PKD1 inh,RGS16-Gao,GALR2 agonist
COc1ccc2oc(=Nc3cc(F)ccc3F)c(C(N)=O)cc2c1,0.79,i,66,21,-4,102,nt
COc1ccccc1OCc1nc(C#N)c(NCCCn2ccnc2)o1,0.91,i,113,0,0,111,nt
CC(NC(=O)COC(=O)/C(=C/c1cccs1)c1cccs1)c1ccccc1 (centres undefined),1.1,i,78,-17,-3,74,-1.0
CCCCCCNc1c(C(=O)OCC)c(=O)[nH]c2ccccc12,0.87,i,95,-7,-7,124,-2.2
CCOc1ccc(Nc2nc(Nc3ccc(O)cc3)nc(C)c2[N+](=O)[O-])cc1,0.88,i,112,-13,-4,96,nt
CCOC(=O)c1[nH]c2cc(OC)c(OC)cc2c1NC(=O)CN1CCN(C)CC1,0.84,i,113,-69,76*,77,-1.2
CCCCNC(=O)CSc1nc(N)c(C(=O)Nc2ccc(OC)cc2)s1,1.3,i,nt,nt,nt,102,nt
CCCCCC(=O)Nc1cccc(C2=NOC3(C2)C[C@@H](C(N)=O)N(C(=O)Cc2ccc([N+](=O)[O-])cc2)C3)c1 (some centres undefined),0.85,i,nt,nt,nt,102,nt
CN(C)CCCCCN(C)Cc1cc2ccccc2o1,0.95,i,86,-319,4,101,nt
COc1ccc(C(=O)NCc2nnc(SCC(=O)Nc3cccc(F)c3)o2)cc1,0.95,i,nt,nt,-4,103,nt
CCOC(=O)c1ccc2cccc(C)n2c1=O,0.86,i,122,23,-1,108,-2.6
COC(=O)c1ccccc1NC(=O)CSc1nnnn1C,0.86,i,79,-100,-2,100,-1.1
Cc1ccc(S(=O)(=O)N2CCN(c3nc4ccccc4nc3-n3nc(C)cc3C)CC2)cc1,0.9,i,38,-22,0,100,-0.5
Cc1ccc(SCC(=O)NCc2ccco2)cc1,1,i,114,26,-2,101,-2.7
Cc1ccccc1C(=O)OC(C)CN1CCN(C)CC1 (centres undefined),0.88,i,108,33,-4,105,nt
O=C(NCc1nnc(SCC(=O)N2CCN(c3ccccc3)CC2)o1)c1ccco1,1.1,i,32,-24,-8,106,-0.1
O=C1CN(C(=O)c2ccc(Br)o2)C(c2ccccc2)c2cc(Cl)ccc2N1 (centres undefined),0.94,i,nt,nt,1,108,-1.2
Nc1nc(C2CC(=O)OC23CCCCC3)cs1 (centres undefined),1,i,66,-285,1,102,-1.5
N#C/C(=C\c1ccc(O)c(O)c1)S(=O)(=O)c1ccccc1,0.91,i,117,48,-11,259*[activator],-2.3
Clc1ccc2oc3c(Cl)ncnc3c2c1,0.89,i,63,-80,8,102,-0.7
COc1cc(CNCCSc2nnnn2C)cc(Br)c1OCc1ccc(F)cc1,0.89,i,92,21,-11,93,-2.1
CCCNC(=O)CN(C)C(=O)c1n[nH]c2ccccc12,0.93,i,112,39,-8,104,-2.2
CCOC(=O)C(Cc1ccc(NC(=O)/C(=C/c2ccccc2)NC(=O)c2ccccc2)cc1)N1C(=O)c2ccccc2C1=O (centres undefined),1,i,119,-203,2,101,-2.0
COc1ccc(-c2cc(C(=O)O)no2)cc1,1,i,nt,nt,1,101,nt
CN(C)CCNC(=O)c1ccc(COCC(F)(F)F)cc1,0.96,i,128,-220,-3,106,-0.9

The list continues:
smiles,HSV replic up primary fold,HSV replic up,INS promoter inh cell count,INS promoter inh,PKD1 inh,RGS16-Gao,GALR2 agonist
O=C(Nc1ccc(Cc2ccc(NC(=O)N3CCOCC3)cc2)cc1)N1CCOCC1,0.95,i,nt,nt,-20,111,-1.6
Cc1cccc(C)c1-n1c(C)cc(/C=N\Nc2ccc([N+](=O)[O-])cn2)c1C,nt,?,82,-67,-5,110,-0.5
CCOC(=O)Cn1c(=NC(=O)C2CC2)sc2c(C)cc(C)cc21,1,i,nt,nt,nt,100,nt
COCC(=O)Nc1cc(OC)ccc1OC,0.83,i,122,60,-12,93,-2.3
COc1ccccc1CC(=O)Nc1ccc(F)cc1F,nt,nt,145,-7,-6,117,nt
COC(=O)c1cc(NC(=O)Cn2c(=O)cnc3ccccc32)cc(C(=O)OC)c1,0.83,i,66,-47,9,98,-1.6
CC(C)NS(=O)(=O)c1ccc(NC(=O)NC2CCCCC2)cc1,1,i,154,7,-6,107,-1.3
O=C(c1cccnc1)N1CCN(c2ccc(Cl)cc2)CC1,1.1,i,75,38,6,108,-1.6
O=C(NC1CCCCC1)c1cc2ccccc2cc1O,0.97,i,nt,nt,nt,87,nt
O=C(CSCc1ccccc1)NCCCN1CCOCC1,1.1,i,nt,nt,-1,100,nt
CCn1c(SCC(=O)N2CCOCC2)nc2ccccc21,0.99,i,nt,nt,-1,109,nt
Cc1ccc(S(=O)(=O)/N=C(/Nc2ccc3[nH]c(=O)[nH]c3c2)c2ccccc2)cc1,0.89,i,nt,nt,-7,108,nt
Cc1c(NC(=S)/C=C2\N(C)c3ccccc3C2(C)C)c(=O)n(-c2ccccc2)n1C,1.2,i,145,-5,-5,107,-3.4
CCCCN1C(N)=NC[C@@H]1Cc1ccc(O)cc1,0.88,i,nt,nt,nt,102,nt
CN(Cc1ccccc1)c1nc2c(c(=O)[nH]c(=O)n2C)n1CCCc1ccccc1,0.93,i,75,-35,5,104,-1.4
O=C(Nc1ccc2c(c1)C(=O)NC2=O)c1ccc(Cl)s1,nt,nt,nt,nt,-1,100,nt
CC(C)CNS(=O)(=O)c1ccccc1C(=O)N1CCCCC1,0.68,i,112,25,-12,98,0.8
COc1cc(OC)cc(C(=O)NCCOC23CC4CC(CC(C4)C2)C3)c1,0.91,i,nt,nt,0,104,nt
c1ccc(-c2cc(N3CCCCC3)nc(-c3ccccc3)n2)cc1,0.92,i,111,-10,6,98,-1.9
Cc1ccc(C(=O)Oc2ccc([N+](=O)[O-])cc2)cc1S(=O)(=O)N1CCCCCC1,1,i,87,14,8,45,-2.7
O=C(Nc1ccc(OCc2ccccc2)cc1)c1cccnc1,nt,nt,72,-6,4,102,-1.3
CCCCOc1ccc(C(=O)N/C(=C/C=C/c2ccccc2)C(=O)NCCO)cc1,1,i,67,0,2,104,-1.2
CC(C)N(C(=O)CSc1nnc(Cc2ccc3c(c2)OCO3)n1C)C(C)C,0.95,i,84,-43,-2,99,nt
O=C(c1cc2nc(-c3ccc(F)cc3)cc(C(F)(F)F)n2n1)N1CCCCC1c1cccnc1 (centres undefined),0.81,i,123,0,8,108,nt
O=C(Nc1ccccn1)[C@@H]1CCC(=O)N1C(=O)OCc1ccccc1,0.95,i,128,4,-5,105,-0.5

The results go on.
smiles,HSV replic up primary fold,HSV replic up,INS promoter inh cell count,INS promoter inh,PKD1 inh,RGS16-Gao,GALR2 agonist
Cc1ccc(NC(=O)CN2CCN(c3ccccn3)CC2)cc1S(=O)(=O)N(C)C,0.9,i,49,17,-1,100,nt
CN1CCc2c(OCC(=O)N3CCCc4ccccc43)cccc2C1=O,0.98,i,131,16,-4,100,nt
CCOc1cc(N2CCOCC2)c(OCC)cc1NC(=O)COc1ccccc1[N+](=O)[O-],0.89,i,nt,nt,0,101,nt
CCOC(=O)N1CCN(c2c(NCc3cccs3)c(=O)c2=O)CC1,0.59,i,nt,nt,-16,100,-4.1
CS(=O)(=O)Nc1ccccc1C(=O)Nc1ccc2c(c1)OCCO2,0.79,i,69,-70,-1,101,-3.0
Cc1cc2n(n1)SC(Nc1ccc(F)c(Cl)c1)N2 (centres undefined),0.92,i,125,8,-2,111,0.4
O=C(CCc1ccccc1)N1CCN(c2ccc([N+](=O)[O-])cc2)CC1,0.97,i,nt,nt,2,105,nt
O=C(NCc1nnc(SCC(=O)N2CCCc3ccccc32)o1)c1ccccc1F,1,i,76,-73,-1,115,nt
COc1ccccc1NS(=O)(=O)c1cccc(-n2c(O)c(C=Nc3ccccc3C(=O)O)c3ccccc3c2=O)c1,0.82,i,nt,nt,nt,101,nt
CN(C)c1ccc(C(CNS(=O)(=O)c2ccc(F)cc2)c2c[nH]c3ccccc23)cc1 (centres undefined),0.92,i,83,-38,-15,104,0.3
Cn1nc(C(F)(F)F)c(-c2ccc(F)cc2)c1NC(=O)c1ccco1,1,i,nt,nt,nt,176*[activator],nt
[O-][n+]1onc2c1CCc1[nH]c(-c3ccccc3)nc1-2,0.74,i,98,-14,0,99,nt
COc1cc(NS(=O)(=O)c2ccc(OC)c(OC)c2)cc(OC)c1,1,i,81,-48,-2,97,-0.6
CCC1(C(=O)c2ccccc2)C2c3cc(Br)ccc3OC(=O)C21C(=O)N1CCOCC1 (centres undefined),0.92,i,109,27,3,74,-2.8
COc1ccc2nc(/C=N/NC(=O)[C@H](CCSC)NC(=O)OC(C)(C)C)ccc2c1,0.98,i,nt,nt,1,94,-1.0
CC(C)CCNC(=O)c1ccc2c(c1)ncn2C1CCCCC1,0.94,i,55,-54,9,98,-2.2
COc1ccc(-c2nnc3ccc(SCC(=O)Nc4cc(C)on4)nn23)cc1OC,0.91,i,nt,nt,0,98,nt
Cc1nn(C)cc1C1C(C#N)=C(N)N(c2ccc(F)c([N+](=O)[O-])c2)C2=C1C(=O)CCC2 (centres undefined),1,i,42,-100,12,102,-0.9
Cc1nnc2n(-c3ccccc3)c(=O)c3c4c(sc3n12)COC(C)(C)C4,0.91,i,99,4,-1,101,-0.9
CCCCOc1ccc(NC(=O)C(=O)NCCC2=CCCCC2)cc1,0.81,i,121,-7,-7,105,-2.8
O=C(NNc1nc(-c2ccccc2)cs1)c1ccco1,0.96,i,60,-3,7,125,-2.5
CCN(CC)S(=O)(=O)c1ccc(C(=O)NNC(=O)c2cccs2)cc1,1,i,nt,nt,-16,109,0.2
O=C(NCc1ccccc1)c1c(F)c(F)c(F)c(F)c1F,1,i,91,38,22,100,-1.5
O=C(CCSCc1cccc(Cl)c1)NC1CCCC1,0.98,i,118,-19,-12,106,-2.1
O=C(CCc1nc2ccccc2s1)c1ccccc1,0.99,i,nt,nt,1,102,-0.1

(cont.)
smiles,HSV replic up primary fold,HSV replic up,INS promoter inh cell count,INS promoter inh,PKD1 inh,RGS16-Gao,GALR2 agonist
Oc1cc(O)c2c(c1)O[C@H](c1ccc(O)c(O)c1)[C@@H](O)C2,0.71,i,nt,nt,nt,112,nt
COC(=O)CSc1nnc(CNC(=O)c2ccccc2F)n1-c1ccccc1,0.99,i,nt,nt,4,102,nt
CC1CCC(C(=O)NC(C(=O)NCCCN2CCOCC2)C(C)C)CC1 (centres undefined),0.79,i,103,64,-5,96,-0.1
Cc1c(C(c2ccc(O)cc2)c2c(C)n(C)n(-c3ccccc3)c2=O)c(=O)n(-c2ccccc2)n1C,0.94,i,69,0,-4,102,nt
CC(NC(=O)c1ccco1)C1CCCO1 (centres undefined),0.77,i,115,0,-6,99,-1.3
CC(C)COP(=O)(c1ccc(N(C)C)cc1)C(Nc1ccccc1)c1ccccc1 (centres undefined),0.97,i,nt,nt,-7,100,1.2
O=C(C1=C[C@H](c2coc3ccccc3c2=O)C[C@H](OCc2ccc(CO)cc2)O1)N1CCN(Cc2ccccc2)CC1,0.95,i,nt,nt,22,99,nt
O=C(COc1ccc(Cl)cc1)NNC(=O)c1cccnc1,0.98,i,nt,nt,3,114,nt
Cc1ccccc1NC(=O)Cn1cnc2c(oc3nc4c(cc32)COC(C)(C)C4)c1=O,0.87,i,92,-33,17,99,-0.5
COc1cc(/C=N/NC(=O)Cc2c[nH]c3ccccc23)cc(OC)c1OC,0.81,i,74,12,-2,107,nt
O=C(CSc1ccccc1C(=O)O)Nc1cccc(C(=O)O)c1,1,i,71,-129,-6,101,-2.4
Cc1cccc(-c2nnc(SCCOc3ccc4c(C)cc(=O)oc4c3)o2)c1,0.99,i,63,4,-8,105,-1.9
CC(C)c1nc2sc3c(=O)n(N)cnc3c2c2c1COC(C)(C)C2,1.2,i,118,-43,5,100,0.5
O=S(=O)(c1ccc(F)cc1)N1CCN(c2ncccn2)CC1,0.91,i,nt,nt,nt,101,nt
Cc1nc(SCC(=O)NC(=O)NCc2ccco2)nc(C)c1C,0.94,i,nt,nt,-5,97,nt

2 compounds picked at random from the list so far:
smiles,HSV replic up primary fold,HSV replic up,INS promoter inh cell count,INS promoter inh,PKD1 inh,RGS16-Gao,GALR2 agonist
CC(C)COP(=O)(c1ccc(N(C)C)cc1)C(Nc1ccccc1)c1ccccc1 (centres undefined),0.97,i,nt,nt,-7,100,1.2
Cc1c(C(c2ccc(O)cc2)c2c(C)n(C)n(-c3ccccc3)c2=O)c(=O)n(-c2ccccc2)n1C,0.94,i,69,0,-4,102,nt
